Screening results as filed in PubChem BioAssay.
Rango-impB inh = prevents formation of the Rango-importin beta complex | Rango CFP/YFP FRET sensor + importin beta, 45 min | Potency, µM (doses to about 92.2 µM), inactives show top-dose inhibition of complex formation | hit rate 0.031% among 340,000 | AID 540263; active = rising FRET ratio curve, often small or poorly fitted; inconclusive = mostly compound fluorescence or quenching in the first reads; inactive = flat curves in all reads;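 also: potency is read from the fitted curve at half-maximal effect; 0% = DMSO wells and 100% = buffer wells lacking importin beta; nearly all actives have a fitted effect of over 15% in size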
Target sequence (Q14974 whole entry, looked up): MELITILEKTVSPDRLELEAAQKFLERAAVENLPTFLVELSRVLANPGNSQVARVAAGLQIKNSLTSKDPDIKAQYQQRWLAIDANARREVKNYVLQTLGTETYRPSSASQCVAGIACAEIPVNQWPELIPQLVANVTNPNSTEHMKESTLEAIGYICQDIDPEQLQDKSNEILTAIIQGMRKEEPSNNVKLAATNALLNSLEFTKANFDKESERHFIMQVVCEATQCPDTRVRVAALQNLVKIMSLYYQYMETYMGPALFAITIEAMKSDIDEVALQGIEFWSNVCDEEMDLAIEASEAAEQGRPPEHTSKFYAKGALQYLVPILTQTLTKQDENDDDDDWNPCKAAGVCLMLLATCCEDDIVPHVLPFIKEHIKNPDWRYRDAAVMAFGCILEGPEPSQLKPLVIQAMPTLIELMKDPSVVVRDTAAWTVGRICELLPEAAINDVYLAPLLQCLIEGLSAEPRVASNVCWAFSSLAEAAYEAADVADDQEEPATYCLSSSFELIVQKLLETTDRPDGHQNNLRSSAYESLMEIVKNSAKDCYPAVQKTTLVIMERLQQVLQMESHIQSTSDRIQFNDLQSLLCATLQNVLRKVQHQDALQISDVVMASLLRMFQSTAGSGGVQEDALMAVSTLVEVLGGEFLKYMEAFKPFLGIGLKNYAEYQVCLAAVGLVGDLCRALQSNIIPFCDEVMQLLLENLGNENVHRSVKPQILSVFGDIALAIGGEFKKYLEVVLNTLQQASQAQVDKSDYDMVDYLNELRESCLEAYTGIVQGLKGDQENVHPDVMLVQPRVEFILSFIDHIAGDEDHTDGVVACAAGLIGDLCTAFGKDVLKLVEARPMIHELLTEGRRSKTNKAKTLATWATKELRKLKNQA
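FRET biosensor (snurportin 1 IBB flanked by EYFP and cerulean), 50 nM, with compound 5 min, then 0.125 microM importin beta in PBS, 1 mM DTT, 0.02% Tween-20, 0.1% BSA. CFP/YFP ratio read after 45 min at room temperature; pre-read flags interference.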
miR-21 FLuc = raises the signal of a miR-21 reporter. 340,000 tested, under 10 active. AID 2288. Potency, µM (top dose mostly 38.3 µM), for the others: at the top dose reporter change, positive = more light. HeLa miR-21 FLuc reporter, luciferase, 48 h; active = well fitted rising curve with a large enough effect; inconclusive = small, poorly fitted or top-dose-only effect; inactive = no such curve, though single readings can be large or run the other way;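 also: % of control where 0% means no effect; miR-21 action dims this reporter so a rising signal means less miR-21 action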
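Compounds were titrated across several concentrations (up to approximately 40 uM) and incubated 48 hours with HeLa miR-21-FLuc reporter cells (miR-21 target sequence downstream of FLuc, endogenous miR-21). Readout was firefly luciferase luminescence after lytic detection reagent.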
GLA inh pH 4.5 = blocks human alpha-galactosidase A at pH 4.5; P06280; purified enzyme, 4-MU-alpha-Gal fluorescence, pH 4.5; activity change, negative = inhibition, % at 105 µM; 230,000 tested, under 10 active; AID 1467; inconclusive = small, poorly fitted or top-dose-only inhibition, or a rising curve; inactive = flat fitted curve, though single readings scatter; no compound was filed as active;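 also: 0% = full activity with enzyme and -100% = basal without enzyme; dose as in the result columns while the protocol names 77 µM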
Rango dissoc inh = prevents RanGTP from dissociating the Rango-importin beta complex; O95149+P62826; Biochemical FRET Rango-importin beta, RanGTP-induced dissociation; Potency, µM (titrated, usually from 46.1 µM), without a hit: top-dose activity change, negative = inhibition; hit rate 0.071% among 340,000; AID 540253; active means falling FRET ratio curve, often poorly fitted, with flat reads before Ran was added; inconclusive means other falling curves, or compound fluorescence or quenching; inactive means flat or rising ratio curve;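 also: potency is read from the fitted curve at half-maximal effect; % of control where 0% means no effect; nearly all actives have a fitted effect of over 45% in size; -100% = wells without RanGTP and RCC1; the record marks most hits as doubtful in a second field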
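Rango (0.1 uM)–importin beta (0.25 uM) complex; RanGTP-RCC1 trigger; 45 min RT; CFP/YFP FRET read.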
An asterisk follows results filed as active; u = inconclusive; x = not tested or not shown; & = joins results of further samples. This is a subset. The share of hits here may be higher or lower than overall.

(1) COC(=O)c1ccc(/C=N/NC(=O)c2ccc3nc[nH]c3c2)cc1
(2) COc1ccc(-c2cn[nH]c2C)cc1OC
(3) Cc1nc2scc(C)n2c(=O)c1S(=O)(=O)Nc1ccc(N2CCN(S(C)(=O)=O)CC2)cc1
(4) CCNC(=S)NS(=O)(=O)c1ccc(F)cc1
(5) COc1cc2[nH]c(=S)nc(NCc3ccccc3)c2cc1OC
(6) O=C(O)CCc1ccc(-c2ccccc2)n1-c1cccc(C(=O)O)c1
(7) CCOc1c(Br)cc(C(N)=O)cc1OCc1ccccc1
(8) Cc1ccc(S(=O)(=O)N(C)S(=O)(=O)c2ccc(C)cc2)cc1

assay / entry,1,2,3,4,5,6,7,8
Rango-impB inh,1.1%,-1.2%,1.2%,3.7%,0.0%,u,1.0%,-0.7%
miR-21 FLuc,-1%,4%,19%&22%,3%,13%,-42%,0%,x
GLA inh pH 4.5,x,6,x,7,x,x,6,x
Rango dissoc inh,-11%,13%,4%,6%,14%,-11%,-2%,14%

(9) O=C(NC1CCCCC1)C(c1ccccc1)N1CCOCC1 (stereo not given)
(10) CN(C(=O)COC(=O)c1nc(Cl)c(Cl)c(Cl)c1Cl)C1CCS(=O)(=O)C1 (stereo not given)
(11) Cc1cc2nc(N)sc2cc1[N+](=O)[O-]
(12) O=C(Cc1ccccc1[N+](=O)[O-])N/N=C/c1cccnc1
(13) Cc1ccc(C)c(/C(O)=C2\C(=O)C(=O)N(CCCn3ccnc3)C2c2ccncc2)c1 (stereo not given)
(14) CCn1c(Cc2ccccc2)nnc1SCc1ccc([N+](=O)[O-])cc1
(15) O=C(/C=C/c1cccc(F)c1)Nc1cc(S(=O)(=O)N2CCOCC2)ccc1N1CCCC1
(16) CCCOc1ccc(S(=O)(=O)NCCN2CCOCC2)c2ccccc12

assay / entry,9,10,11,12,13,14,15,16
Rango-impB inh,0.0%,2.6%,-0.5%,-1.0%,6.7%,-1.3%,-1.6%,4.7%
miR-21 FLuc,-9%,u,-61%,-3%,1%,-6%,-4%,2%
GLA inh pH 4.5,5,-7,8,x,5,-9,-3,-4
Rango dissoc inh,14%,-14%,-2%,7%,-17%,2%,-2%,-1%

(17) CCCCNC(=O)CC1Nc2ccccc2NC1=O (stereo not given)
(18) CN(C)CCNC=C(C(=O)Nc1ccc(Cl)cc1Cl)C(=O)Nc1ccc(Cl)cc1Cl
(19) COC(=O)N/N=C/c1c[nH]c2ccccc12
(20) COc1ccc(N2CC(NS(=O)(=O)c3ccc(F)cc3)CC2=O)cc1 (stereo not given)
(21) O=C(Nc1ccccc1Cl)c1c(F)c(F)c(F)c(F)c1F
(22) O=C(NCCN1CCOCC1)c1ccccc1N1C(=O)[C@@H]2Cc3c([nH]c4ccccc34)C(c3ccc(F)cc3)N2C1=O (stereo not given in full)
(23) C/C(CC(=O)NC(C)(C)C)=N\NC(=O)COc1ccc(C)cc1Br
(24) Cc1cc(C(F)(F)F)nc(SCC(=O)NC2CC3CCC2C3)n1 (stereo not given)

assay / entry,17,18,19,20,21,22,23,24
Rango-impB inh,u,-3.0%,3.0%,-1.2%,-2.1%,u,5.8%,u
miR-21 FLuc,0%,-3%,-1%,x,x,11%,-11%,-5%
GLA inh pH 4.5,10,-1,9,x,x,x,-9,5
Rango dissoc inh,u,22%,-11%,-6%,0%,u,3%,6%

(25) CC12CCC3c4ccc(OCC(=O)O)cc4CCC3C1CCC2=O (stereo not given)
(26) Cc1cc(OCC(=O)Nc2cccc(S(=O)(=O)NC3=NCCCCC3)c2)ccc1Cl
(27) COc1cc(SC)ccc1C(=O)N1CCN(S(=O)(=O)/C=C/c2ccccc2)CC1
(28) COc1ccc(C)cc1Nc1nc(N)c2cc(OC)c(OC)cc2n1
(29) CCS(=O)(=O)Nc1ccc(C2=NN(C(=O)c3ccccc3)C(c3cccs3)C2)cc1 (stereo not given)
(30) Cc1cc(C)c(NC(=O)Cn2cc3c(n2)CCCC3)c(C)c1
(31) CC(=O)OC[C@H]1O[C@@H](O/N=C/[C@@H](C)[C@H](OCc2ccccc2)C(C)C)[C@H](OC(C)=O)[C@@H](OC(C)=O)[C@@H]1OC(C)=O
(32) CCC1Oc2ccc(C)cc2N(CC(=O)NCc2ccccc2OC)C1=O (stereo not given)

assay / entry,25,26,27,28,29,30,31,32
Rango-impB inh,0.1%,0.8%,-2.3%,3.4%,4.2%,-0.2%,x,4.2%
miR-21 FLuc,x,-4%,x,-20%&-34%,15%,-1%,2%,-2%
GLA inh pH 4.5,x,5,x,x,x,-1,15,-3
Rango dissoc inh,-3%,0%,1%,3%,-5%,-8%,x,5%

(33) Cc1cc(C)cc(N(CC(=O)Nc2c(C)n(C)n(-c3ccccc3)c2=O)S(C)(=O)=O)c1
(34) O=C1c2cccc(OCC(=O)N3N=C(c4cccs4)CC3c3ccc(F)cc3)c2CCN1Cc1cccnc1 (stereo not given)
(35) Cc1ccc(C)c(N2CCN(C(=O)C3CCCN(c4ncnc5c4nc4n5CCCCC4)C3)CC2)c1 (stereo not given)
(36) O=C(CCNC(=O)c1ccccc1Cl)Nc1cccc(S(=O)(=O)N2CCCCC2)c1
(37) COc1cccc(-c2nc(C(N)=O)c3[nH]c(=O)n(-c4cccc(Cl)c4)c3n2)c1OC
(38) OC(C#CCN1CCOCC1)(c1ccccc1)C1CCCCC1 (stereo not given)
(39) Cc1cccc(OCc2nnc(SCC(=O)Nc3ccc(N4CCOCC4)cc3)o2)c1
(40) CC(OC(=O)CN1C(=O)c2ccccc2C1=O)C(=O)NC1(C#N)CCCCC1 (stereo not given)

assay / entry,33,34,35,36,37,38,39,40
Rango-impB inh,u,-0.8%,0.0%,1.9%,-5.6%,-0.5%,2.0%,-4.1%
miR-21 FLuc,-6%,7%,27%,x,-7%,-2%,-1%,x
GLA inh pH 4.5,-1,-8,x,x,5,-24,x,x
Rango dissoc inh,0%,-2%,0%,-7%,13%,0%,-14%,-1%

(41) CC(=O)OCc1c(C(F)(F)F)nn(C)c1Oc1ccccc1
(42) Cc1ccc(C(=O)OCc2nnc(-c3ccc(Br)cc3)o2)cc1
(43) Cc1cccc(C)c1N(CC(=O)N1CCOCC1)S(C)(=O)=O
(44) CCC(=O)c1ccc(N2CCN(C(=O)c3cc([N+](=O)[O-])ccc3N3CCN(C)CC3)CC2)c(F)c1
(45) O=C(NNC(=O)c1cc2ccccc2cc1O)Nc1ccccc1F
(46) CCN(CC)Cc1c[nH]c2c(C(=O)OC)cccc12
(47) CCC/C(=N\NC(=O)CNC(=O)/C=C/c1ccco1)c1ccccc1
(48) Cc1cccc(N2CCN(C(=O)CCS(=O)(=O)c3ccc4c(c3)oc(=O)n4C)CC2)c1C

assay / entry,41,42,43,44,45,46,47,48
Rango-impB inh,2.5%,2.2%,0.0%,-1.0%,u,-1.9%,2.3%,4.1%
miR-21 FLuc,0%,-6%,0%,-5%,-4%,-9%,1%,9%&16%
GLA inh pH 4.5,1,-6,x,-1,x,x,7,x
Rango dissoc inh,-1%,1%,-10%,0%,u,3%,1%,0%

(49) O=C(NCCc1ccc(Cl)cc1Cl)C1=CC=CN2CCS(=O)(=O)N=C12
(50) O=[N+]([O-])c1ncn(C23CC4CC(CC(C4)C2)C3)n1
(51) C=CCOC(=O)C1=C(C)NC(=O)NC1/C=C/c1ccccc1OC (stereo not given)
(52) COc1ccc(CCNC(=O)Cc2cccs2)cc1OC
(53) CC1(C)CC(=O)C(=Cc2cn(CCC#N)nc2-c2ccc(Cl)cc2)C(=O)C1
(54) CCOC(=O)c1c(NC(=O)COC(=O)c2cccnc2OCC)sc(C(=O)N(CC)CC)c1C
(55) Cc1cccc(C)c1NC(=S)N/N=C/c1c(Cl)cccc1Cl
(56) CC1CC(C)CN(C(=O)c2ccc3c(c2NCCO)C(=O)c2ccccc2C3=O)C1 (stereo not given)

assay / entry,49,50,51,52,53,54,55,56
Rango-impB inh,-2.2%,0.3%,0.5%,0.8%,0.6%,2.0%,-2.6%,0.2%
miR-21 FLuc,x,-2%,-7%,-9%,-3%,x,-2%,9%
GLA inh pH 4.5,x,-3,x,-7,6,x,5,-6
Rango dissoc inh,-6%,30%,11%,3%,1%,u,7%,0%

(57) COc1ccc(CCNC(=O)c2nnn(-c3cccc(C)c3)c2N)cc1OC
(58) Cc1nn(C)c(C)c1NC(=O)c1ccc(Cl)cc1
(59) CN(C(=O)COC(=O)C1=COCCO1)C1(C#N)CCCCC1
(60) O=C(O)c1cccnc1-c1ncccc1C(=O)O
(61) COc1ccc(NC(=O)c2ccccc2CC[N+](=O)[O-])cc1
(62) O=S(=O)(NCc1ccccc1)c1ccc(S(=O)(=O)N(Cc2cccs2)CC2CCCO2)cc1 (stereo not given)
(63) Cc1cc(C)c2nc(C(F)(F)F)nc(N3CC(C)OC(C)C3)c2c1 (stereo not given)
(64) Cc1c(NC(=O)c2nn3c(C(F)(F)F)cc(-c4ccccc4)nc3c2Br)c(=O)n(-c2ccccc2)n1C

assay / entry,57,58,59,60,61,62,63,64
Rango-impB inh,0.7%,-3.9%,-1.2%,0.6%,1.1%,u,0.7%,0.8%
miR-21 FLuc,-6%,-5%,x,0%,-12%,0%,0%,-1%
GLA inh pH 4.5,-1,-4,x,2,-6,4,0,-2
Rango dissoc inh,1%,-9%,1%,-1%,-10%,u,9%,-2%

(65) COc1ccc(/C=N/Nc2nc(=O)[nH]nc2C)cc1OC
(66) ON=C1CCCCCCCC1
(67) COc1cc(C(=O)NCc2ccc(-n3cccc3)cc2)cc(OC)c1OC
(68) CC(=O)N1CCCC1(C(=O)O)c1ccccc1 (stereo not given)
(69) OCCNc1nnc(-c2ccccc2)c(-c2ccccc2)n1
(70) Cc1cc(C(=O)N/N=C/c2cccc([N+](=O)[O-])c2)c(C)n1-c1ccccc1
(71) O=c1cc(O)nc(SC23CC4CC(CC(C4)C2)C3)[nH]1
(72) O=C(Nc1ccccc1N1CCN(c2ccc(F)cc2)CC1)c1ccccc1

assay / entry,65,66,67,68,69,70,71,72
Rango-impB inh,0.5%,0.0%,x,-0.4%,1.2%,3.8%,-5.8%,-1.0%
miR-21 FLuc,-1%,x,4%,-1%,x,-92%,-5%,-5%
GLA inh pH 4.5,7,x,-4,-10,x,3,7,-9
Rango dissoc inh,-4%,5%,x,u,-19%,-14%,5%,10%
